# Screens as filed in PubChem.
# NPR1 antag: human Npr1 receptor antagonism. P16066. HEK293 hNpr1 GloSensor cGMP, ANP-stimulated luminescence. Potency, µM (top dose mostly 46.3 µM), without a hit: at the top dose activity change, negative = inhibition, usual class: inhibitors. 76,000 compounds, 1.6% hits; active = well fitted inhibition curve with a large enough effect; inconclusive = small, poorly fitted or top-dose-only effect; inactive = no such curve, though single readings can be large or run the other way;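 note: nearly all actives have a fitted effect of over 60% in size; nearly all hits also lower the signal before the agonist is added; a reference antagonist and vehicle were the controls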
# Target sequence (P16066 whole entry, looked up): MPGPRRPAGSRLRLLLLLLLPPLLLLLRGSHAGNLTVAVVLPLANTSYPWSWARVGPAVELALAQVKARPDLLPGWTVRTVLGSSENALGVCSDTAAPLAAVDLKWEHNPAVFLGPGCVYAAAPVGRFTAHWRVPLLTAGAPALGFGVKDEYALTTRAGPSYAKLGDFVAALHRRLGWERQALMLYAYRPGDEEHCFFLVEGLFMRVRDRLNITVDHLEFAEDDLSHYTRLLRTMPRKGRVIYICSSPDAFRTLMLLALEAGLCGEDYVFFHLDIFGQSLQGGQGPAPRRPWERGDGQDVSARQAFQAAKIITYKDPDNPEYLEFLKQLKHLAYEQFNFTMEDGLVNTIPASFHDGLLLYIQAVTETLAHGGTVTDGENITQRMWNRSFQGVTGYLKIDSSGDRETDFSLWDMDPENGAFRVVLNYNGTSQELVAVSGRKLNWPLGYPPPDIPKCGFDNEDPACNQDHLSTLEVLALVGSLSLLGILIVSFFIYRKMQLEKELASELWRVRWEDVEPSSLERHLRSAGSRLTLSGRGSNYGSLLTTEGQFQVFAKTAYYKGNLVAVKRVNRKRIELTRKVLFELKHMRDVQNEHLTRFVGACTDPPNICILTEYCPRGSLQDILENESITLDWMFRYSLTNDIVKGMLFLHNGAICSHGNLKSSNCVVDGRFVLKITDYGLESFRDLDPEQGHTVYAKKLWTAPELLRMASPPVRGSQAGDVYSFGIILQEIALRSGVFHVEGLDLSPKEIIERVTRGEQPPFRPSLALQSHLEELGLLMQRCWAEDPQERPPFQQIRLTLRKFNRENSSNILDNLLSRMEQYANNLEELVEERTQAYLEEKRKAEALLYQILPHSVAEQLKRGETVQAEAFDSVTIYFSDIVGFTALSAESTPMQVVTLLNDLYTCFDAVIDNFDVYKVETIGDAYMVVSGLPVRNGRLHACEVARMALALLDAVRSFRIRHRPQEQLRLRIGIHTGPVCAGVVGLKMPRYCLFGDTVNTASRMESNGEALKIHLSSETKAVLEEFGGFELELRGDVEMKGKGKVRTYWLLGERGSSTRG
#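 Compound pre-incubated 30 min at room temperature on GloSensor-loaded HEK293 cells stably carrying hNpr1 and the pGS-40F cGMP biosensor. Stimulation uses hNppA at 0.1 nM final; luminescence is taken at baseline and 20 min post-agonist.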
# * hit, by the source's call; ? = inconclusive; & = joins results of further samples; [ ] = remark or other dose. % is set by controls: 0 for no effect and ±100 for the full control effect; potency is the fitted concentration of half-maximal effect.
SMILES,NPR1 antag
CCOc1cccc(CN2CCC(C(Cc3ccccc3F)N(C)C(=O)c3cccs3)CC2)c1O (configuration not stated),-3%
COc1ccc(C(CC(=O)NCCc2ccccc2)c2c[nH]c3ccccc23)cc1OC (configuration not stated),0%
Cc1n[nH]c(C)c1C(N)C(=O)NCc1ccccc1Cn1cccn1 (configuration not stated),3%
COc1ccc(-c2cc(C[C@H]3CNCC[C@H]3CC(=O)Nc3nccs3)no2)cc1,-1%[70.6 µM]
Cc1ccc(C(=O)N2C[C@@H](Oc3ccccc3)C[C@H]2C(=O)N2CCOCC2)s1,0%
O=C(Cc1ccccc1F)N1CCN(c2nnc3ccc(Cl)cn23)CC1,0%
OC1(CN2CCC(c3cc(Cc4ccccc4)[nH]n3)CC2)CNCCOC1 (configuration not stated),3%
Cc1ccsc1C(=O)N1CCC(c2nc(CCOCC3CC3)no2)C1 (configuration not stated),3%
CC1(C)[C@H](Cc2cc(CN3CCOCC3)on2)C[C@@H]1N(Cc1ccco1)Cc1ccco1,-28%
COc1ccc(CC(=O)N2CCC3(C2)C(=O)N(CCc2ccccc2)c2ccccc23)cc1 (configuration not stated),0%&4%
Cc1ccc2c(C(=O)NCc3ccc(Cl)cc3)cnn2c1,-3%[70.6 µM]
CC(NC(=O)c1cc2n(n1)CC(c1ccc(Cl)cc1)OC2)c1ccc(F)cc1 (configuration not stated),?
N#Cc1ccc(S(=O)(=O)N2CCC[C@H]2C(=O)N2CCCCCCNC(=O)CC2)cc1,-6%
CC(=O)Nc1ccc2ncnc(N3CCCC3)c2c1,2%
CCc1cccc(Nc2nc(-c3ccc(OC)c(OC)c3)no2)c1,-14%
COCCCNc1ccc2nnc(-c3ccccn3)n2n1,0%[70.6 µM]
O=C1CC(c2ccccc2)N(C(=O)C2CC2)CCCN(C(=O)c2ccc3ccccc3n2)CCN1 (configuration not stated),0%
Cc1cccc(CNC(=O)c2ccc3c(c2)N(C)C2CCCCCN2C3=O)c1 (configuration not stated),4%
NC(=O)C1CCN(c2cc(-c3noc([C@@H]4CCCN4Cc4cccnc4)n3)ccn2)CC1,2%[70.6 µM]
COc1ccc(OC)c(S(=O)(=O)N2CCCC(c3nc(C(C)C)no3)CCNC(=O)CC2)c1 (configuration not stated),2%
O=C(c1ccc2c(c1)OCO2)N1CCc2nc(C3CC3)nc(-c3ccc(Cl)cc3)c2CC1,-12%
O=C(c1cnccn1)N1CCc2onc(C(c3ccccc3)c3ccccc3)c2C1,-4%
COc1cc(CN2CCCC(COc3ccccc3C(=O)N3CCCC3)C2)ccc1O (configuration not stated),2%
COc1ccc(S(=O)(=O)N2CC(C(=O)NC3CCCCC3)C3(CCOCC3)C2)cc1 (configuration not stated),4%
COCCN1C(=O)CS(=O)(=O)C12CCN(C(=O)C1(c3ccc(OC)cc3)CC1)CC2,4%
COCc1nnc2n1CCC(NC(=O)c1cnn(C)c1)CC2 (configuration not stated),7%
CCNC(=O)C1CCN(C(=O)N2CC3CC(C2)[C@H]2CCCC(=O)N2C3)CC1 (some centres not stated),-1%
O=C(c1cccnc1)N1C[C@@H]2OCC(=O)N(Cc3ccccn3)[C@@H]2C1,6%[70.6 µM]
COCc1nncn1C1CCN(S(=O)(=O)c2ccc(C)cc2C)CC1,-7%
Cc1ccc(C(=O)N2CC[C@H](CO)[C@H](N(C)C)C2)s1,1%
Cc1nn(C(=O)CCC(=O)N2CCC(CCOc3ccccc3)C2)c2ccccc12 (configuration not stated),-21%
CC1Oc2ccc(NC(=O)c3cccs3)cc2CN(CCc2ccc(F)cc2)C1=O (configuration not stated),-10%
Cc1cc(C)c(CNC(=O)c2nc(-c3ccc(CO)cc3)cc3c2ccn3C(C)C)c(=O)[nH]1,4%
O=C(c1ccoc1)N1CC[C@@H]2COCCN(Cc3ccccc3)[C@@H]2C1,3%
COc1ccc(-c2nc3c(c(=O)[nH]2)CCN(C(=O)Nc2ccc(C)cc2C)C3)cc1,7%
COc1cc(=O)n2c(c1C(=O)Nc1ccc(F)cc1F)CCCC2,-6%
O=C(NC1CC(c2nnc(CO)n2C2CC2)C1)c1n[nH]c2c1COCC2 (configuration not stated),-20%
COc1ccc(C(=O)N[C@@H]2CN(C(=O)NC3CCCCC3)CCC[C@H]2O)cc1,-1%[70.6 µM]
C[C@H]1CCCN1C(=O)c1nnc(COc2ccc(Cl)cc2)n1-c1ccccc1,-15%[70.6 µM]
Fc1ccc(CN2CCOC[C@H]2c2ncc(-c3ccc(F)cc3F)[nH]2)cc1,?

# Given with bars between the fields: entries from further up
compound | NPR1 antag
O=C(c1ccoc1)N1CC[C@@H]2COCCN(Cc3ccccc3)[C@@H]2C1 | 3%
COc1ccc(-c2nc3c(c(=O)[nH]2)CCN(C(=O)Nc2ccc(C)cc2C)C3)cc1 | 7%

# Continuation:
SMILES,NPR1 antag
CC1(C)[C@H](Cc2cc(CN3CCOCC3)on2)C[C@@H]1NCc1ccc(CO)o1,-3%[70.6 µM]
O=C(NCCc1nc(-c2cccnc2)no1)c1coc2c1C(=O)CCC2,-6%
Cc1noc([C@@H]2CN(C(=O)CCc3ccccc3)C[C@H]2CO)n1,6%
O[C@@H]1C[C@@H](c2nc(-c3ccc4c(c3)OCO4)no2)N(C2CCOCC2)C1,3%[70.6 µM]
O=C(Nc1ccc(Cl)cc1)C1CCN(C(=O)c2ncn3c2COC(c2ccc(F)cc2)C3)CC1 (configuration not stated),?
C[C@@H]1CN(C(=O)c2cc(-c3ccco3)nc3c(Cl)cccc23)C[C@]1(C)O,5%
O=C(NC[C@H]1OC[C@@H](N(Cc2ccccc2)Cc2ccccc2)[C@@H]1O)Nc1ccccc1,-13%[70.6 µM]
CCN(CC)C(=O)CC[C@@H]1CNC(=O)[C@@H]2C[C@H](NCc3ccc(OC)cc3)CN12,-3%[70.6 µM]
CSCC(=O)N1CC[C@H](NC(=O)Nc2cccc(SC)c2)[C@H]1C(=O)N[C@H](Cc1ccccc1)C(N)=O,-2%
O=C1CC(c2nc(-c3ccc4nc[nH]c4c3)no2)CN1Cc1cccnc1 (configuration not stated),-1%
CNC(=O)c1cccc(-c2cnc(Nc3cccc(C(F)(F)F)c3)c3c2CCO3)c1,?
CC1=C[C@@H](CN2CCC(CO)CC2)[C@H](C(C)C)C[C@H]1Cc1nnc(-c2ccncc2)o1,4%[70.6 µM]
O=C(NCc1cccs1)c1ccc2nccn2c1,1%[70.6 µM]
CCN1C(=O)CCC2(C(=O)NCCN(C)C3CCCCC3)CCCC=C12 (configuration not stated),-3%
CN[C@H](C(=O)N[C@H]1C[C@@](O)(C(=O)N[C@@H](Cc2cccs2)C(N)=O)C[C@@H](O)[C@@H]1O)C(C)C,-1%
NC(=O)Cn1ccc2cc(OCC3CCN(c4cnccn4)CC3)cnc21,4%[70.6 µM]
Cc1cn2nc(C(=O)N3CCC(NC(=O)C4CCC4)CC3)cc2c(=O)[nH]1,16%
O=C(CN1CCn2nnc(-c3nc(-c4ccccc4)no3)c2C1=O)Nc1ccc(Cl)cc1,0%
Cc1cn2nc(C(=O)NCc3ccc(F)cc3F)cc2c(=O)[nH]1,-8%
O=C(c1ccc(F)cc1)N1CCC(n2cc(-c3nc(C4CC4)no3)nn2)C1 (configuration not stated),0%
Cc1[nH]c2ccccc2c1CC(=O)NC1CCCc2nc(N(C)C)ncc21 (configuration not stated),-1%
COCc1nc2nc(-c3ccccc3)c(-c3ccnc(OC)c3)cc2n1C,-6%[70.6 µM]
O=C(CCC[C@@H]1[C@H]2CCCN3CCC[C@@H](CN1Cc1cccnc1)[C@@H]23)NCc1cccnc1,1%
CNC(=O)[C@@H]1CN(C(=O)c2ccc(OC)nc2)C[C@H]1COC,-19%
COCCC(=O)N1CCC(N2C[C@H](O)C[C@H]2C(=O)NCc2cccc(OC)c2)CC1,-3%
O=C(CN1CC2CC(C1)[C@H]1CCCC(=O)N1C2)NCc1ccc2c(c1)OCO2 (some centres not stated),-4%
Cc1c(CN2CCCC(C(=O)Nc3cccc(-c4cc5ccccc5[nH]4)c3)C2)cnn1C (configuration not stated),-25%
COc1cc(CN2CCOc3ccc(C(=O)NCc4ccccc4F)cc3C2)ccc1O,-26%
C=CCC1(C(=O)O)CCCN(C(=O)CCCc2ccc(OC)cc2)C1 (configuration not stated),0%
O=C(CC1CCN(S(=O)(=O)c2ccccc2F)C1)NCc1ccccc1 (configuration not stated),-7%
Cc1cc(F)ccc1S(=O)(=O)N1C[C@H](C2CC2)[C@@H](N)C1,-1%
CC1(C)CC(NC(=O)C2CC(=O)N(c3n[nH]c4ccccc34)C2)CC(C)(C)N1 (configuration not stated),2%
O=C(c1cccc(F)c1)N1CCC(n2cc(-c3nc(C4CC4)no3)nn2)C1 (configuration not stated),-26%
NC(=O)c1cccc(-c2ncc3c(n2)OCCN(c2ccccc2)C3=O)c1,1%[70.6 µM]
Cc1cnn(Cc2cc(C(=O)N3CCCCCC3c3nnc(-c4ccccc4)o3)no2)c1 (configuration not stated),1%
Cc1ccccc1CNC(=O)C1CCN(C(=O)N2CC3CC(C2)[C@H]2CCCC(=O)N2C3)CC1 (some centres not stated),-1%
Cc1ccn(CC(=O)N2CCc3nn(Cc4ccccc4)c(=O)n3CC2)n1,-5%
O=C(c1ccccc1)N1CCC(NCCOc2ccccc2F)CC1,-2%
CC(C)c1noc([C@@H]2C[C@H](NC(=O)c3ccc(F)cc3)CN2C)n1,1%[70.6 µM]
O=C(CN1C(=O)NC(c2ccc(Cl)cc2)C2=C1COC2=O)Nc1ccc2c(c1)OCO2 (configuration not stated),-10%
Cc1ccoc1C(=O)N1C[C@@H](COCC2CC2)[C@H](c2ccccn2)C1,-1%
O=C(Cc1ccccc1F)N1CC(Oc2ccc(-c3noc(-c4cccnc4)n3)cc2)C1,-29%
Cc1ccc(S(=O)(=O)N2CCC(Oc3ncccc3C(=O)N(C)C)C2)cc1F (configuration not stated),1%
CCOc1ccccc1C1NC(=O)N(CC(=O)Nc2cccc(C(C)C)c2)C2=C1C(=O)OC2 (configuration not stated),?
O=C(Cn1cccc1-c1nc(-c2ccc3c(c2)OCO3)no1)Nc1ccc(Cl)cc1,0%
O=C(N[C@H]1CCN2C(=O)c3ccccc3NC(=O)[C@@H]2C1)c1ccccc1,10%[70.6 µM]
COc1ccc(CNc2ncnc3c2CN(c2ccc(C)cc2)C(=O)N(C)C3)cc1OC,0%
O=C(NC[C@H]1OC[C@@H](NC2CCCC2)[C@@H]1O)C1CCCC1,-1%[70.6 µM]
CC(=O)NC1CCN(Cc2nc(-c3sccc3C)oc2C)CC1,0%
Cc1ccc(C(=O)N[C@@H]2CN(Cc3ccncc3)C[C@H]2CN(C)C)c(C)c1,5%
CN(C)C(=O)C1CN(C(=O)c2ccc(Br)cc2)CC12CCOCC2 (configuration not stated),3%
NCCc1cccc(CN2CCC(OCc3ccccc3)CC2)c1,-5%
Cc1cc(F)ccc1-c1cccc(COc2cnc3c(ccn3CC(=O)O)c2)c1,-1%[70.6 µM]
COc1cccc(CN2CCOc3ccc(C(=O)NCc4ccccc4F)cc3C2)n1,-14%
COc1ccc(NC(=O)Cn2cccc2-c2nc(-c3ccc(OC)c(F)c3)no2)cc1,3%
COCC(=O)Nc1cc(C(=O)N2CCc3cc(OC)c(OC)cc3C2)c2c(c1)nc(C1CCC1)n2C,-9%
Cc1cc(CNC(=O)c2ccc(-c3ccccc3Cl)o2)n(C)n1,11µM*
CCS(=O)(=O)Nc1ccc(C2(C(=O)NCc3ccccc3F)CCCCC2)cc1,-6%
O=C(Cn1c(=O)oc2cc(Cl)ccc21)N1CCc2n[nH]c(=O)n2CC1,-1%
Cc1nn(CCNC(=O)Cn2cc(C)c(=O)[nH]c2=O)c(C)c1Cl,2%

# The closing 5 entries of the part before open the next one:
SMILES,NPR1 antag
COCC(=O)Nc1cc(C(=O)N2CCc3cc(OC)c(OC)cc3C2)c2c(c1)nc(C1CCC1)n2C,-9%
Cc1cc(CNC(=O)c2ccc(-c3ccccc3Cl)o2)n(C)n1,11µM*
CCS(=O)(=O)Nc1ccc(C2(C(=O)NCc3ccccc3F)CCCCC2)cc1,-6%
O=C(Cn1c(=O)oc2cc(Cl)ccc21)N1CCc2n[nH]c(=O)n2CC1,-1%
Cc1nn(CCNC(=O)Cn2cc(C)c(=O)[nH]c2=O)c(C)c1Cl,2%
Cc1ccc(-c2ccc3ncn(Cc4ccccn4)c(=O)c3n2)c(C)c1,0%[70.6 µM]
CC(C)Oc1ccc(CN2CCC(CO)(Cc3ccccc3Cl)CC2)cc1CO,0%
COC[C@@H]1CN(C(=O)Cc2cccc(OC)c2)C[C@H]1c1ccncc1,-8%
Cc1ccc(CN2CCCOCCNC(=O)CC2)s1,-1%
CN1c2cc(C(=O)NCCc3ccccc3)ccc2C(=O)N2CCCC21 (configuration not stated),0%
O=C(NCCOc1ccccc1)c1cnc2n1CCN(Cc1ccc(F)cc1)CC2,-18%[70.6 µM]
Cc1cn2nc(C(=O)NCc3cc(F)cc(F)c3)cc2c(=O)[nH]1,15%
CNC(=O)NC[C@H]1CCN(Cc2ccc(F)cc2F)C[C@H]1N(C)C,3%
Cc1ncc2c(c1CNC(=O)Cc1ccsc1)CCN(C(=O)Cc1ccc(F)c(F)c1)C2,16%
COc1ccc(-c2cc(N3CCCC(NC(=O)c4cnccn4)C3)n[nH]2)cc1 (configuration not stated),3%
COCCNCc1ccc(-c2ccc(F)cc2)o1,1%
C[C@@H](NC(=O)C1CCOCC1)c1onc(-c2ccc(F)cc2)c1C(=O)O,3%[70.6 µM]

# 3 compounds already listed, sorted by count of non-hydrogen atoms, largest number first:
SMILES,NPR1 antag
Cc1ccc(-c2ccc3ncn(Cc4ccccn4)c(=O)c3n2)c(C)c1,0%[70.6 µM]
CNC(=O)NC[C@H]1CCN(Cc2ccc(F)cc2F)C[C@H]1N(C)C,3%
Cc1ccc(CN2CCCOCCNC(=O)CC2)s1,-1%

# Some of the compounds tested; the hit share may differ from the screen's.
